# KCNQ2 inh = KCNQ2 channel blockers in CHO-K1 cells – cell-based, FluxOR thallium flux, B-score, primary screen (AID 2156); 20 min; active compounds read low; only compounds with negative scores are shown here; some inactives read as strong as hits; 1.1% of 310,000 active; B-score at 10 µM; O88943;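 active = fluorescence ratio B-score at most minus 3 library SDs, with starting brightness B-score within 2 library SDs, cut at about -5.5 in these data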
# Target sequence (O88943 whole entry, looked up): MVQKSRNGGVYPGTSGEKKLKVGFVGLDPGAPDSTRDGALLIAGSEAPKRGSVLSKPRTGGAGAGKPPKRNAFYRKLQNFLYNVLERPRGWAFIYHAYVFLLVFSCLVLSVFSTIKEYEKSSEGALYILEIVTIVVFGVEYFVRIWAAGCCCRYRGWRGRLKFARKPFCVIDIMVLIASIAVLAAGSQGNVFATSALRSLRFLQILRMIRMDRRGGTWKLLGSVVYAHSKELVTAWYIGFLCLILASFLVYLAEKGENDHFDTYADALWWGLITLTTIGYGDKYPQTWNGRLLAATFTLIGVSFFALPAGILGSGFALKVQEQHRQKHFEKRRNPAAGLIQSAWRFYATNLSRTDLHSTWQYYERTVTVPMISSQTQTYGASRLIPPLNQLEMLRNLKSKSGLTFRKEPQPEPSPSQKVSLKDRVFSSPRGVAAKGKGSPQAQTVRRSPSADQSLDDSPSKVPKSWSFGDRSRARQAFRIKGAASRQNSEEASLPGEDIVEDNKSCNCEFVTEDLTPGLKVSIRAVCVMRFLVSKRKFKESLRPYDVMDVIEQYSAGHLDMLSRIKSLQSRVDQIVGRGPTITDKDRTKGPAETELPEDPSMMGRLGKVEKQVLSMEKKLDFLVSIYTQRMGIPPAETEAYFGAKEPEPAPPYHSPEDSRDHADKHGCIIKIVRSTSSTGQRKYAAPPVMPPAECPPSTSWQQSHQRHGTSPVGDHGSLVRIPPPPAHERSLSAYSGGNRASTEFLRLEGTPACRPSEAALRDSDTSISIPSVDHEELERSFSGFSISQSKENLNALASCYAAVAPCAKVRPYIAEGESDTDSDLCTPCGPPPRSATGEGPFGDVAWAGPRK
# KCNQ2 inh baseline = further read-out of KCNQ2 inh, marked with its call; B-score; measured here: initial fluorescence intensity artifact check;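 brightness before thallium and not channel activity; 0 = typical well and far values either way flag optical interference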
# Numbers without * were called inactive; i = inactive. Only part of the results is shown, so the mix of outcomes need not match the whole.
KCNQ2 inh	KCNQ2 inh baseline	SMILES
i	2.8	CSc1cccc(NC(=S)N2CCC(c3ccccc3)C2)c1 (configuration not stated)
i	-1.1	Cc1ccccc1NC(=O)NNC(=O)c1ccc2ccccc2c1O
i	-0.94	O=C(c1ccc2c(c1)N(Cc1cccc(Cl)c1)C(=O)c1ccccc1S2(=O)=O)N1CCN(c2ccccn2)CC1
i	0.55	CC(=O)c1ccc(S(=O)(=O)NCCC(=O)OCC(=O)N2CCCC2=O)cc1
i	0.33	Cn1cnc2c1c(=O)n(Cc1cccc(Br)c1)c(=O)n2C
-6.6*	-1.8*	O=C(Nc1cccc(F)c1)N1CC=C(c2ccc(Cl)cc2)CC1
i	0.52	Cc1csc(NC(=O)C2CCCN2C(=O)OCC(C)C)n1 (configuration not stated)
i	-0.06	Nc1c(C(=O)Nc2ccccc2)sc2nc3c(c(-c4ccco4)c12)CCC3
i	0.68	CC(Cc1ccccc1)(NC(=O)CN)c1ccccc1 (configuration not stated)
i	0.29	O=C(COc1ccccc1)NCc1ccc(-n2cccc2)cc1
i	2.4	CCOC(=O)C1(CCOC)CCN(C(=O)c2ccccc2-c2cccc(C)c2)CC1
i	1.4	O=C(Cc1ccc(S(=O)(=O)N2CCOCC2)s1)Nc1ccc(S(=O)(=O)N2CCCCC2)cc1
i	-0.7	O=S(=O)(Cc1cc(Cl)nc(-c2ccncc2)n1)c1ccccc1
i	-0.16	O=C(CNC(=O)c1cccs1)c1ccc([N+](=O)[O-])cc1
i	-0.02	COc1ccc(-c2ccc(=O)n(CC(=O)Nc3ccc(C(=O)NC4CC4)cc3)n2)cc1OC
i	0.7	O=C(OCc1ccccc1F)c1ccc2c(c1)OCCO2
i	0.02	NNS(=O)(=O)c1ccc(Sc2ccccn2)c([N+](=O)[O-])c1
i	-0.74	CCC(CC)c1nnc(NC(=O)[C@@H](NC(=O)c2cccc(C)c2)C(C)C)s1
i	1.1	O=C(Cn1cnc2c(cnn2-c2ccccc2Cl)c1=O)N1CCc2ccccc21
i	0.72	O=C(CCc1ccccc1)NC(NC(=S)Nc1ccc(Cl)cc1)C(Cl)(Cl)Cl (configuration not stated)
i	-0.8	O=S(=O)(NCc1ccc(Cl)cc1)NCc1ccc(Cl)cc1
i	-1.3	Cc1cc(OC(=O)c2ccc(C)c(C)c2)c([N+](=O)[O-])c(=O)[nH]1
i	0.88	O=S(=O)(Nc1cccc(C(F)(F)F)c1)c1cccnc1
i	-1.9	Cc1c(C)c2ccc(OCC(=O)Nc3ccc(N4CCC(C)CC4)cc3)cc2oc1=O
i	0.1	Cc1cccc(C(=O)N(c2ccccn2)C(C)c2ccco2)c1 (configuration not stated)
i	0.79	Cn1c(CN2CCOCC2)nnc1SCC(=O)NC1CCCCC1
i	-0.35	Cc1cc(NC(=O)CSc2nnc(-c3c[nH]c4ccccc34)n2C)no1
i	-1.5	CCOc1cc(N2CCOCC2)c(OCC)cc1NC(=O)c1cccc(N(C)C)c1
-5.7*	-0.74*	O=C(Nc1ccc(Cl)cc1)N(C1=NCCC1)c1ccc(OC(F)F)cc1
i	-0.43	C/C(=N\Nc1nc2ccccc2[nH]1)c1cc2ccccc2o1
i	-0.56	COc1ccc(N2C(=O)C(Cl)=C(Nc3ccccc3OC)C2=O)cc1
i	0.06	COC(=O)CCC(=O)OC1(C)C(=O)C2=CN(CC(C)C)C(c3ccc(OC)cc3)=CC2=C(Br)C1=O (configuration not stated)

# Some of these compounds in order of the KCNQ2 inh baseline value, ascending.
KCNQ2 inh	KCNQ2 inh baseline	SMILES
-5.7*	-0.74*	O=C(Nc1ccc(Cl)cc1)N(C1=NCCC1)c1ccc(OC(F)F)cc1
i	-0.56	COc1ccc(N2C(=O)C(Cl)=C(Nc3ccccc3OC)C2=O)cc1
i	0.06	COC(=O)CCC(=O)OC1(C)C(=O)C2=CN(CC(C)C)C(c3ccc(OC)cc3)=CC2=C(Br)C1=O (configuration not stated)

# The list goes on:
KCNQ2 inh	KCNQ2 inh baseline	SMILES
i	1.1	Cc1cc(C)n(S(=O)(=O)c2ccc3oc(=O)ccc3c2)n1
i	-1.1	CCCNC(=O)c1sc2c(c1C(=O)Nc1ccccn1)CCCC2
i	-2.4	Cc1[nH]c2ccccc2c1C(c1ccncc1)N1CCN(c2ccccn2)CC1 (configuration not stated)
i	-0.87	COC(=O)c1cc(Cl)c(NC(=O)/C=C/c2ccc(OC)c(OC)c2)cc1OC
i	0.98	Cc1cccc(OCC(=O)NCCCNC(=O)c2cccnc2)c1
i	-1.3	COc1ccc2nc(SCC(N)=O)[nH]c2c1
i	0.85	CSc1ccc(/C=N/NC(=O)CNc2cccc3ccccc23)cc1
i	0.6	CC(C)SC1=NC(C)(C)C=C(/C=C/c2c(Cl)cccc2Cl)N1
i	-0.88	CCn1cc(Br)c(C(=O)Nc2ccc(F)c(Cl)c2)n1
i	-2.3	Cc1cc(C)cc(OCCCC(=O)O)c1
i	-0.2	CC(C)c1[nH]nc2c1C(c1ccc(OC(=O)c3ccco3)cc1)C(C#N)=C(N)O2 (configuration not stated)
i	-0.04	O=C(c1ccc2c(=O)n(C3CCCC3)c(=S)[nH]c2c1)N1CCc2ccccc21
i	-1.8	CC(=O)c1cnn(-c2cc(Oc3cccc(C)c3)ncn2)c1C
i	-0.83	Cc1ccccc1OCc1nc2ccccc2c(=O)n1/N=C/c1cn[nH]c1-c1ccccc1
i	-0.49	COc1ccc(NS(=O)(=O)c2cccc(C(=O)NNC(=O)c3ccccc3O)c2)cc1
i	-4	Cc1ccc(C(=O)NCCNC(=O)CN2CCCC2)cc1

# Single records, from the list above. Order of screens: KCNQ2 inh	KCNQ2 inh baseline
# Cc1ccc(C(=O)NCCNC(=O)CN2CCCC2)cc1 is listed with i	-4
# CCn1cc(Br)c(C(=O)Nc2ccc(F)c(Cl)c2)n1 is listed with i	-0.88

# Other entries follow:
KCNQ2 inh	KCNQ2 inh baseline	SMILES
i	-1.4	CCOC(=O)/C(=N\Nc1ccccc1)c1csc(Nc2ccc(C)cc2)n1
i	0.26	Cc1ccc(Cl)cc1NC(=O)C1COc2ccccc2O1 (configuration not stated)
i	-1.5	C#CCOc1c(Cl)cc(/C=C2/C(=O)ON=C2C)cc1OC
i	-0.68	Cc1nc(-c2cccc(NC(=O)COc3ccc(Cl)cc3)c2)cs1
i	0.04	O=C(NCc1ccc(-c2nc3ccccc3s2)cc1)c1ccc(Br)o1
i	2	Cn1cnc(S(=O)(=O)N2CCN(c3ccc(F)cc3)CC2)c1
i	0.01	COc1ccc(NC(=O)CN2CCN(CC(=O)Nc3ccccc3F)CC2)cc1OC
i	-1.2	CC(CCc1ccccc1)NC(=O)CCNS(=O)(=O)c1ccccc1 (configuration not stated)
i	0.14	CCOC(=O)N1CCN(S(=O)(=O)c2ccc(OC)c(OC)c2)CC1
i	1.1	CCn1ccnc1CNC(=O)C1CCC(=O)N(Cc2cccc(C(F)(F)F)c2)C1 (configuration not stated)
i	0.61	O=C1CC(c2ccccc2Cl)CC(O)=C1C=NCCCO (configuration not stated)
i	-1.4	COc1ccc2c(-c3ccccc3)cc(N3CCOCC3)nc2c1
i	-1.8	COc1ccc(CCN(Cc2cccs2)S(=O)(=O)c2ccc(-n3cnnn3)c(OC)c2)cc1OC
i	-0.05	COc1cc(/C=C2\CCn3c2nc2cc(C(=O)O)ccc2c3=O)ccc1OC(F)F
i	2.5	CCCCN(C(=O)CC1CCCC1)c1c(N)n(CC(C)C)c(=O)[nH]c1=O
i	-0.22	O=C(c1ccc(-c2ccccc2Cl)o1)N1CCN(c2ccccc2O)CC1

# Entries listed so far containing a COOH group (two):
KCNQ2 inh	KCNQ2 inh baseline	SMILES
i	-2.3	Cc1cc(C)cc(OCCCC(=O)O)c1
i	-0.05	COc1cc(/C=C2\CCn3c2nc2cc(C(=O)O)ccc2c3=O)ccc1OC(F)F

# Further structures:
KCNQ2 inh	KCNQ2 inh baseline	SMILES
i	0.32	C=CCC(=O)N1CCCC(CO)(Cc2ccc(F)cc2F)C1 (configuration not stated)
i	-0.02	Cc1nc2ccc(C(=O)O)cc2c2c1CC(CN)O2 (configuration not stated)
i	-0.01	Cc1cc2nc(-c3ccc(=O)[nH]c3)n(Cc3ccccc3)c2cc1C
i	0.51	Cc1ccnc2nc(C(=O)N3CCN(c4ccc(F)cc4)CC3)nn12
-6.5*	-0.26*	Cc1ccc(N(C)S(=O)(=O)c2ccc(-c3cc(C)no3)s2)cc1
i	-1.5	CSc1c(-c2ccccc2)nc2ccc(Cl)cc2c1C(=O)O
i	-0.72	COCCNC(=S)N/N=C(\C)c1ccccc1OC
i	-0.8	Cc1ccccc1N1C(=O)c2cccc3cccc(c23)C1=O
i	1.9	COc1ccc(OC(=O)COc2ccccc2C)cc1
i	-1.4	O=C(CCc1nnc(Cc2ccc3c(c2)OCO3)o1)NCCc1ccccc1Cl
i	3.5	O=C(NCc1ccccn1)c1ccc2c(c1)N(Cc1ccccc1)CCS2
i	3.2	NS(=O)(=O)c1ccc2nc(NC(=O)Nc3ccc(F)cc3)sc2c1
i	-0.51	COc1ccc(C(=O)c2ccc3oc(-c4ccc(OC)cc4)c(C#CCCO)c3c2)cc1
i	1.8	COc1ccc(S(=O)(=O)N2CCN(C(=O)c3cccs3)CC2)cc1OC
i	-0.24	COc1ccc(C2c3c(-c4ccccc4O)n[nH]c3C(=O)N2Cc2ccco2)cc1 (configuration not stated)
i	-0.61	O=C(C1CCN(S(=O)(=O)c2ccccc2)CC1)N1CCN(c2ccccc2)CC1

# 4 compounds already listed, ordered by count of non-hydrogen atoms, largest number first:
KCNQ2 inh	KCNQ2 inh baseline	SMILES
i	-0.51	COc1ccc(C(=O)c2ccc3oc(-c4ccc(OC)cc4)c(C#CCCO)c3c2)cc1
i	1.8	COc1ccc(S(=O)(=O)N2CCN(C(=O)c3cccs3)CC2)cc1OC
i	3.2	NS(=O)(=O)c1ccc2nc(NC(=O)Nc3ccc(F)cc3)sc2c1
i	1.9	COc1ccc(OC(=O)COc2ccccc2C)cc1

# Following part.
KCNQ2 inh	KCNQ2 inh baseline	SMILES
i	0.78	O=c1c2nnn(Cc3ccccc3)c2ncn1C/C=C/c1ccccc1
i	3	COc1ccc(C(C)C)cc1S(=O)(=O)N1CCC(C(=O)N2CCN(C)CC2)CC1
i	0.04	CC(C)(C)c1ccc(OCCNC(=O)c2ncn[nH]2)cc1
i	-0.17	CC(C)(C)NC(=O)C(c1ccncc1)N(C(=O)Cn1nnc(-c2ccc(F)cc2)n1)c1ccc(F)cc1 (configuration not stated)
i	0.32	CCOC(=O)N1CCN(C(=O)/C(=C/c2cccc3ccccc23)NC(=O)c2ccc(OC)cc2)CC1
i	0.05	CCCNc1c(N)c(=O)c1=O
i	-0.12	CCOc1cccc(C(=O)NC(=S)Nc2ccc(N3CCN(CC)CC3)cc2)c1
i	-0.28	Cn1c(SCc2ccccc2)nnc1-c1ccc(O)cc1
i	0.8	C#CCOCCOCCOCCNc1nc(N2CCN(C(=O)[C@H](CCCCN)n3cc([C@@H](N)CO)nn3)CC2)nc(N2CCN(C(=O)[C@H](Cc3ccc(O)cc3)n3cc([C@@H](N)CC(C)C)nn3)CC2)n1
i	0.3	CCC(=O)OCn1nnc2ccccc2c1=O
i	-0.54	COc1ccc(Nc2ccc(C(N)=O)cc2[N+](=O)[O-])cc1
i	0.03	O=C(CCS(=O)(=O)c1ccc(Br)cc1)NCCc1ccc(Cl)cc1
i	-3	C=C(C)C1Cc2c(C)nn(-c3ccccc3)c2C1 (configuration not stated)
i	0.94	CSCCC(NC(=O)c1c(C)oc2c1CCCC2)C(=O)O (configuration not stated)
i	3.8	O=C(O)c1cccc(CN2C(=O)S/C(=C/c3ccccc3[N+](=O)[O-])C2=O)c1
i	-0.06	CCOC(=O)c1[nH]c(C)c(C(=O)OCCOc2cccc(C)c2)c1C
i	2.9	Cc1ccc(S(=O)(=O)NC(=O)Nc2ncc3c(n2)CC(c2ccco2)CC3=O)cc1 (configuration not stated)
i	0.05	Cc1noc(C)c1COc1cccc(C(=O)N2CCc3ccccc32)c1
i	-2.9	Cc1nc2sc(C(c3ccco3)N3CCc4ccccc4C3)c(O)n2n1 (configuration not stated)
i	0.36	Cc1ccc2c(c1)c1cccc3c1n2CCN3CCC(N)=O
i	0.69	CC(C)(C)c1ccc(C(=O)Nc2ccc(CC(=O)O)cc2)o1
i	-0.28	CN(C)CC(C)(C)CNC(=O)CC1C(=O)NCCN1Cc1ccc(-c2ccccc2)cc1 (configuration not stated)
i	-2.1	Cc1ccc(NS(=O)(=O)c2cc([N+](=O)[O-])ccc2NNC(=S)Nc2cccc(Cl)c2)c(C)c1
i	-0.6	CCOc1ccc2nc(SCC(=O)N(C)C3CCS(=O)(=O)C3)[nH]c2c1 (configuration not stated)
i	0.29	O=C(NCc1ccco1)/C(=C\c1ccccc1)NC(=O)c1ccccc1
i	0.27	COc1ccc(-n2nnc3c(SCc4ccccc4)ncnc32)cc1
i	-0.62	CCC(NS(=O)(=O)c1ccc(OC)cc1)C(=O)O (configuration not stated)
i	0.8	O=C(Nc1cccc2nsnc12)c1ccc(-c2ccc(Br)cc2)o1
i	-0.21	Cc1[nH]c(=S)c(C#N)c2c1CCCC2
i	0.15	CCc1noc(C)c1C(=O)OC(C)C(=O)Nc1ccccc1OC (configuration not stated)
i	-0.08	N=c1c2c(ncn1CCN1CCOCC1)Oc1cc(O)ccc1C2c1ccccc1 (configuration not stated)
i	-0.02	O=C(Nc1ccccc1)ON=C1c2ccccc2-c2ccccc21
i	-0.04	CO/N=C/c1ccc(N2CCOCC2)c([N+](=O)[O-])c1
i	-1.1	CCCCN(CCCC)CCNC(=O)c1cn(C)c2ccc(S(=O)(=O)N(C)C3CCCCC3)cc2c1=O
i	-0.01	C/C(NC(=O)c1ccccc1F)=C1\C(=O)C[C@@H]2[C@H]1C2(C)C
i	2.8	O=[N+]([O-])c1ccc(-c2ccc(/C=N/Nc3nc(N4CCCCC4)nc(N4CCCCC4)n3)o2)cc1
i	0.3	CC(=O)Nc1ccc(NC(=O)Nc2ccccc2)cc1
i	1	O=C(NCCc1cn[nH]c1)C1CCC(=O)N(CCc2cccc(F)c2)C1 (configuration not stated)
i	0.69	O=C1CC(c2ccc3c(c2)OCCO3)Oc2ccc([N+](=O)[O-])cc21 (configuration not stated)
